Compound activity: PubChem BioAssay, National Center for Advancing Translational Sciences (NCATS)
Marburg entry inh = blocks Marburg virus binding to or entry into cells. Marburg virus pseudotyped entry inhibition, cell reporter; control for the full effect not named in the record; about a third of the inactives were read at about 46 µM. Potency, µM (series often up to 37.8 µM), for the others: at the highest dose activity change, negative = inhibition, hits mostly inhibitors. hit rate 1.8% among 300,000; active = well fitted inhibition curve with a large enough effect; inconclusive = small, poorly fitted or top-dose-only effect, or effect the other way; inactive = flat fitted curve, though single readings scatter; tested in HEK293 cells; about a fifth of its hits are not listed in these tables; further: on the % scale 0 is the no-effect control and ±100 the full control effect; luciferase read-out
Cruzain inh noDet = inhibitors of Trypanosoma cruzi cruzain without detergent. P25779. purified cruzain, Z-FR-AMC fluorescence, no detergent. Potency, µM, for the others: max response, negative = inhibition, most hits filed as inhibitors. hit rate 2.3% among 200,000;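 further: plate controls were enzyme without inhibitor for no effect and buffer without enzyme for full effect; nearly all actives have a fitted effect of over 40% in size; top concentration of the series not given in the record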
Target sequence (P25779 123-467 limits assumed): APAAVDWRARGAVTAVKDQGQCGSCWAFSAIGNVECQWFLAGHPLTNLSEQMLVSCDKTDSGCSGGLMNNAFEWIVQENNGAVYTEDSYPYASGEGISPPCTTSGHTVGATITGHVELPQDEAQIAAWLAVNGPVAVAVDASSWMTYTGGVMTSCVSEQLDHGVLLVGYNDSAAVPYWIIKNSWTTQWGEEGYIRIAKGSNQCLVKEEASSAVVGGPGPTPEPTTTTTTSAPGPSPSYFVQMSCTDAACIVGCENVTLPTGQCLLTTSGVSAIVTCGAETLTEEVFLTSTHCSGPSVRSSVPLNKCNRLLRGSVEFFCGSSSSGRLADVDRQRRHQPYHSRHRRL
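Detergent-free condition (0.00005% Triton X-100) in acetate buffer pH 5.5 with DTT. 1.5 nM enzyme and compound were pre-mixed 15 min, then 2 uM Z-FR-AMC substrate added; reaction progress from fluorescence change between first and third reads (60 s).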
Cruzain inh Det = cruzain (T. cruzi) inhibition with detergent; P25779; purified cruzain, Z-FR-AMC fluorescence, 0.01% Triton; Potency, µM, for inactives: max response, negative = inhibition, most hits filed as inhibitors; hit rate 0.43% among 200,000; AID 1478;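 further: plate controls were neutral wells for no effect and buffer without enzyme for full effect; nearly all actives have a fitted effect of over 40% in size; top concentration of the series not given in the record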
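15 min RT preincubation of 1.5 nM cruzain with compound, then 2 uM Z-FR-AMC added; kinetic AMC fluorescence, 60 s delta. Triton X-100 0.01%, pH 5.5.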
LASV entry inh = blocks Lassa virus binding to or entry into cells; Lassa virus pseudotype entry inhibition, cell reporter; control for the full effect not named in the record; Potency, µM (doses to about 37.9 µM), for the others: top-dose activity change, negative = inhibition, most hits filed as inhibitors; hit rate 1.2% among 300,000; active means well fitted inhibition curve with a large enough effect; inconclusive means small, poorly fitted or top-dose-only effect, or effect the other way; inactive means flat fitted curve, though single readings scatter; tested in HEK293 cells; further: on the % scale 0 is the no-effect control and ±100 the full control effect; nearly all actives have a fitted effect of over 50% in size; luciferase read-out
NS1 inh = inhibitors of influenza NS1 protein function. Potency, µM (series often up to 46.1 µM), without a hit: at the highest dose activity, positive = more growth. hit rate 0.4% among 270,000. S. cerevisiae slowed by influenza A NS1, growth recovery by OD600. AID 2326; active means well fitted rising curve with a large enough effect; inconclusive means small, poorly fitted or top-dose-only effect; inactive means no such curve, though single readings can be large or run the other way; further: nearly all actives have a fitted effect of over 50% in size
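S. cerevisiae expressing influenza A NS1, grown in glucose, washed, then diluted 1:100 into pH 6.0 -URA galactose medium with 23 nl compound. Growth recovery read as OD600; NS1-free strain serves as control.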
SARS PLpro yeast = inhibitors of SARS-CoV papain-like protease in yeast. S. cerevisiae expressing SARS-CoV PLpro, growth rescue; control for the full effect not named in the record. hit rate 0.19% among 330,000. Potency, µM (top dose mostly 32.9 µM), for inactives: at the highest dose activity, positive = growth rescue; active means well fitted rising curve with a large enough effect; inconclusive means small, poorly fitted or top-dose-only effect; inactive means no such curve, though single readings can be large or run the other way; further: 0% is about no effect; nearly all actives have a fitted effect of over 55% in size; growth read by luminescence after 48 h
RE007 growth inh = less growth of the S. pombe RE007 Vpr strain. Potency, µM (titrated, usually from 92.2 µM), without a hit: at the highest dose activity change, negative = less growth. AID 651644. S. pombe RE007 Vpr strain, BacTiter-Glo ATP luminescence, 24 h; control for the full effect not named in the record. hit rate 0.21% among 360,000; active = well fitted falling curve with a large enough effect; inconclusive = small, poorly fitted or top-dose-only effect; inactive = no such curve, though single readings can be large or run the other way;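 further: on the % scale 0 is the no-effect control and ±100 the full control effect; nearly all actives have a fitted effect of over 50% in size; the assay follows cell death caused by Vpr and the record does not say whether a fall means rescue or toxicity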
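Fission yeast strain RE007, carrying one chromosomally integrated HIV-1 vpr copy, was seeded at OD 0.01 in PMG+AL medium with 23 nL pinned compound. After 24 h at 30 °C and 99% humidity, viability was read by BacTiter-Glo luminescence.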
StopGo reporter = FMDV 2A StopGo reporter, luciferase signal. Potency, µM (series often up to 57.9 µM), for inactives: at the highest dose signal change, negative = less light. hit rate 1.2% among 410,000. human cells with a luciferase reporter of 2A StopGo recoding; control for the full effect not named in the record. AID 1159524; active = well fitted falling curve with a large enough effect; inconclusive = small, poorly fitted or top-dose-only effect; inactive = no such curve, though single readings can be large or run the other way; tested in HEK293T cells; further: on the % scale 0 is the no-effect control and ±100 the full control effect; nearly all actives have a fitted effect of over 45% in size; luciferase light after 4 h
Numbers without * were called inactive; ? = inconclusive; · = no result given; [ ] = dose if it differs, or a comment. Unless noted, the call rests on the fitted dose curve; in most records, active means well fitted curve in the direction sought with a large enough effect; inconclusive means small, poorly fitted or top-dose-only effect, or another doubt; inactive means no such curve, though single readings can be large; an effect the other way counts as inactive or inconclusive. Potency means the concentration at half of the fitted maximal effect.

structure | Marburg entry inh | Cruzain inh noDet | Cruzain inh Det | LASV entry inh | NS1 inh | SARS PLpro yeast | RE007 growth inh | StopGo reporter
CC(=O)Nc1ccc(NC(=O)c2cc(C)nn2-c2ccccc2)cc1 | -20% | -5% | -0.9% | -7% | -4% | -2% | -3% | -8%
CS(=O)(=O)c1ccc(Cl)c(NC(=O)COC(=O)CCc2c[nH]c3ccccc23)c1 | 9% | · | · | 9% | · | -4% | -25% | -15%
CC1CCCCCCC1OC(=O)c1ccccc1C(=O)O (configuration not stated) | 17% | · | · | 6% | · | · | 11% | -9%
Cc1ccc2oc(Nc3nc(C)cc(C)n3)nc2c1 | 6%[46.1 µM] | 0% | -3.9% | 4% | -3% | -1% | -14% | 54%[activator]
Cn1cc(Cl)nc1C(O)c1ccccc1 (configuration not stated) | 28% | -1% | 0.1% | 9% | -7% | -1% | 5% | -1%
Cc1cc2ccccn2c1C(=O)c1cc([N+](=O)[O-])cc([N+](=O)[O-])c1 | -11%[46.1 µM] | · | · | -9% | -39% | -2% | -10% | ?
O=C(Cc1ccccc1)Nc1cccc(N2CCCC2)c1 | 22% | 25µM* | -29% | -1% | ? | 0% | ? | 17%
CC(=O)c1c(C)[nH]c(C(=O)OCC(=O)Nc2ccccc2Cl)c1C | ? | · | · | -26% | 15% | -2% | -7% | 18µM*
CN(C)c1ccc(N=Cc2ccco2)cc1 | -21% | -22% | -5.8% | -3% | ? | -6% | ? | -17%
Cc1c(C(=O)NCc2ccccc2Cl)sc2nc(-c3ccc(F)cc3)cn12 | · | 0% | -5.5% | -28%[46.1 µM] | · | · | · | -11%
COc1ccc(OC)c(C2C(C#N)=C(N)N(N(C)C)C3=C2C(=O)CC(C)(C)C3)c1 (configuration not stated) | -1%[46.1 µM] | · | · | -20%[46.1 µM] | 4% | 1% | 6% | -4%
O=c1[nH]c(C2CCCCC2)nc2ccccc12 | 12% | -1% | -3.1% | 6% | 1% | -20% | -1% | -15%
CSc1nnc2[nH]c(=O)cc(C)n12 | · | -3% | -0.8% | 0%[46.1 µM] | · | · | · | -10%
CCC1CCCCN1CCCn1c(=S)[nH]c2ccccc2c1=O (configuration not stated) | -9% | -9% | 5.7% | -4% | ? | 6% | -16% | -13%
COc1ccc(Cl)cc1C(=O)OCC(=O)NC1CCCC(C)C1C (configuration not stated) | 0% | · | · | 25% | · | -2% | 5% | ?
COc1cc(NC(=O)C2CCN(S(=O)(=O)c3cccs3)CC2)cc(OC)c1 | 10% | · | · | -8% | · | -4% | -5% | ?
Cc1ccc(N2C(=O)CC(Sc3nc4ccccc4o3)C2=O)cc1Cl (configuration not stated) | -3% | ? | -2.0% | 11% | -5% | -30% | 10µM* | -9%
O=C(CCN1C(=O)/C(=C/c2ccc(F)cc2)SC1=S)Nc1cccnc1 | 1%[46.1 µM] | · | · | · | -8% | 0% | -6% | -8%
O=C(CSc1ncnc2scc(-c3ccccc3)c12)N1CCN(c2ccccc2F)CC1 | ? | 32µM* | -4.4% | ? | ? | 16% | · | ?
Cc1cc(F)ccc1NC(=O)c1sc2nc(-c3cccs3)ccc2c1N | 4%[46.1 µM] | -13% | ? | 20%[46.1 µM] | · | · | · | -18%
CCCCCNC(=O)c1ccc2c(c1)nc(C)n2-c1cccc(C)c1 | · | 22% | 0.0% | 3%[46.1 µM] | · | · | · | -5%
COc1ccc(CC2(C)OC(c3ccncc3)=NN2C(C)=O)cc1 (configuration not stated) | -30% | · | · | ? | · | 3% | -6% | -18%
CC1Cc2cc(S(=O)(=O)N3CCN(c4ccc(Cl)cc4)CC3)ccc2N1C(=O)C1CC1 (configuration not stated) | ? | · | · | ? | 14% | 31% | 10% | ?
Cc1cc(NC(=O)CSc2nc3c(sc4ccccc43)c(=O)n2CCc2ccccc2)n[nH]1 | -6% | 7.9µM* | 7.7% | -16% | -3% | 2% | 14% | 2%
CC(C)C(NC(=O)CN1C(=O)c2ccccc2C1=O)c1ccccc1 (configuration not stated) | · | · | · | · | 0% | 1% | -1% | -10%
CC(C)(C)c1cc(-c2n[nH]c(=S)n2-c2ccc(Cl)cc2)n[nH]1 | 17% | · | · | 10% | -2% | 0% | 2% | -8%
CC(OC(=O)CCc1nc2ccccc2[nH]c1=O)c1ccccc1 (configuration not stated) | -3%[46.1 µM] | · | · | ? | · | -1% | 11% | -4%
CCC(C(=O)Nc1ccccc1)c1ccccc1 (configuration not stated) | -27% | 9% | 0.3% | 8% | 10% | 9% | 6% | -13%
CC1(C)C(=O)OC(c2ccccc2)C(C)(C)C1=O (configuration not stated) | 14% | · | · | 19% | 5% | 1% | -22% | -15%
CC(C)(O)C#Cc1ccc([C@@H]2C[C@H]3CN(c4ccccc4)C(=O)[C@]34CCCN24)s1 | ? | · | · | ? | 4% | 0% | 6% | -18%
O=C(Nc1cc2c(cc1[N+](=O)[O-])OCCO2)c1cccnc1 | ? | · | · | 10% | · | 0% | 2% | 50%[activator]
CC(C)n1nnnc1SCC(=O)Nc1ccccc1F | -7%[46.1 µM] | · | · | 7% | 1% | 6% | 0% | 6%
CCCCCC(=O)Nc1cccc(C2=NOC3(C2)C[C@H](C(N)=O)N(C(=O)[C@H]2CCC(=O)N2)C3)c1 (some centres not stated) | · | · | · | · | 0% | 0% | -10% | 4%
CCOC(=O)c1ccccc1NC(=O)COC(=O)C(Cc1c[nH]c2ccccc12)NC(C)=O (configuration not stated) | 28% | · | · | ? | · | 0% | -13% | -15%
O=C(NC(=S)Nc1ccc2oc(=O)ccc2c1)c1cccc(F)c1 | · | · | · | · | 1% | -16% | 6% | 0%
Cc1nnc(N2CCC(C(=O)NCCc3ccccc3Cl)CC2)c2nn(-c3ccccc3)c(C)c12 | · | 8% | -4.0% | -13%[46.1 µM] | · | · | · | -16%
Fc1ccc2[nH]c3c(NCc4ccccc4)ncnc3c2c1 | ? | · | · | -30% | -13% | -9% | 0% | ?
O=C(Cn1cnc2c(nnn2Cc2ccc(F)cc2)c1=O)Nc1ccccc1 | ? | · | · | -10% | 2% | -1% | 1% | -1%
NNc1nc2c(F)cc(F)cc2s1 | ? | 6% | -3.3% | -1% | -10% | -49% | -19% | 30%
O=S1(=O)[C@H]2C[C@@H]3CC[C@]2(CN1Cc1cccc(F)c1)O3 | · | · | · | · | 4% | 0% | -1% | -13%
Cc1nn(C)c(C)c1CN(C)C(=O)c1cc2n(n1)C(C(F)(F)F)CC(c1cccs1)N2 (configuration not stated) | -22% | ? | 2.4% | -22% | -3% | 5% | -7% | 0%
COc1cccc(CNC(=O)CCC2CCCN(C(=O)c3ccccc3N(C)C)C2)c1 (configuration not stated) | ? | · | · | -15% | 8% | 2% | 13% | -15%
Cc1ccc(NC(=O)COC(=O)c2ccccc2-c2nc3ccccc3s2)c(C)c1 | 25% | 8% | -4.2% | -12% | -10% | 0% | 0% | -24%
CCOc1ccc(C(=O)NCCS(=O)(=O)N2CCN(c3ccccc3F)CC2)cc1OCC | · | 4% | -1.9% | -21%[46.1 µM] | · | · | · | -11%
Cn1c(=O)c2c(nc(NCCCO)n2CCc2ccccc2)n(C)c1=O | -17% | 4% | -1.2% | -17% | -6% | -6% | 2% | -30%
Cc1cc(NS(=O)(=O)c2ccc(NC(=O)COc3ccccc3Cl)cc2)no1 | 9% | ? | -11% | 5% | -13% | 14% | 16% | 28%
O=C(Nc1ccc(F)cc1)c1ccc2c(=O)n(CC3CCCO3)c(=S)[nH]c2c1 (configuration not stated) | -24%[46.1 µM] | · | · | 0%[46.1 µM] | -1% | -15% | 8% | ?
CCc1nc2c(nnn2Cc2ccc(F)cc2)c(=O)[nH]1 | 2% | 18% | 6.2% | -12% | 0% | 13% | 4% | ·
Cc1ccc(C(=O)N2CCN(S(=O)(=O)c3ccc(C)c([N+](=O)[O-])c3)C2)cc1 | -11%[46.1 µM] | · | · | -4% | -4% | -1% | 17% | -27%
CN(C)c1ccc(Nc2cc(Cl)ncn2)cc1 | · | · | · | · | 6% | 3% | 0% | 47%[activator]
COc1ccc(S(N)(=O)=O)cc1C(=O)NCCCN1CCN(c2ccc(C)cc2)CC1 | -1% | -7% | 1.6% | 3% | -15% | 5% | 2% | -23%
COc1ccc2cc(CCNC(=O)c3cc4ccccc4o3)c(=O)[nH]c2c1 | · | · | · | · | -1% | 1% | -4% | ?
Cc1cn2c(=O)c(C(=O)N3CCN(c4ccccc4)CC3)cnc2s1 | 0% | · | · | ? | · | -2% | 1% | 8%
CN(C(=O)c1ccc(NC(=O)Cc2ccccc2)cc1)c1ccccc1 | 26% | · | · | -14% | · | · | -14% | 31%[activator]
CCn1c(=O)c2sccc2n2c(CCCC(=O)N3CCN(c4ccc(OC)cc4)CC3)nnc12 | · | 9% | -0.7% | -11%[46.1 µM] | · | · | · | -2%
Cc1ccc(-c2cc3nc4c(c(=O)n3[nH]2)CCCC4)cc1 | -3% | · | · | ? | -1% | · | -14% | -36%

Later entries.
structure | Marburg entry inh | Cruzain inh noDet | Cruzain inh Det | LASV entry inh | NS1 inh | SARS PLpro yeast | RE007 growth inh | StopGo reporter
COc1c2c(c(C)c3c1C(=O)OC3)O[C@@]1(C)CC[C@@]3(O)C(C)(C)OC(=O)CC[C@]3(C)[C@H]1C2 | · | · | · | · | 2% | 1% | -4% | -14%
CCOC(=O)/C=c1\s/c(=C\c2ccc(C#N)cc2)c(=O)n1CC(=O)NCc1ccco1 | 8%[46.1 µM] | -2% | -1.1% | 5% | 14% | 7% | 9% | -7%
CSc1nnc(-c2ccco2)c(-c2ccco2)n1 | -3% | 13µM* | 14µM* | -1% | 9% | -3% | -24% | -13%
CCNc1ccc(C(=O)OCC(=O)NC(C)c2ccccc2)cc1[N+](=O)[O-] (configuration not stated) | 4% | -13% | -2.8% | -3% | 22% | 10% | · | -21%
Cn1c(SCC(=O)N2CCCC2=O)nc2ccccc21 | 11%[46.1 µM] | · | · | 25%[46.1 µM] | · | 0% | 4% | 7%
Cc1ccccc1N(Cc1nnc2n1CCCCC2)C(=O)Nc1ccccc1 | 0% | -4% | -2.1% | 7% | 2% | -1% | 15% | 21%
